Screens as filed in PubChem.
VDR inhibitor = vitamin D3 receptor (human) inhibition. P11473. VDR-SRC2-3 peptide fluorescence polarization, 2 h. Potency, µM, without a hit: max response, negative = inhibition, most hits filed as inhibitors. 0.93% of 400,000 active. AID 504847; active = well fitted inhibition curve with a large enough effect; inconclusive = small, poorly fitted or top-dose-only effect, or another doubt; inactive = no such curve, though single readings can be large or run the other way; note: series mostly up to about 120 µM
Target sequence (P11473 whole entry, looked up): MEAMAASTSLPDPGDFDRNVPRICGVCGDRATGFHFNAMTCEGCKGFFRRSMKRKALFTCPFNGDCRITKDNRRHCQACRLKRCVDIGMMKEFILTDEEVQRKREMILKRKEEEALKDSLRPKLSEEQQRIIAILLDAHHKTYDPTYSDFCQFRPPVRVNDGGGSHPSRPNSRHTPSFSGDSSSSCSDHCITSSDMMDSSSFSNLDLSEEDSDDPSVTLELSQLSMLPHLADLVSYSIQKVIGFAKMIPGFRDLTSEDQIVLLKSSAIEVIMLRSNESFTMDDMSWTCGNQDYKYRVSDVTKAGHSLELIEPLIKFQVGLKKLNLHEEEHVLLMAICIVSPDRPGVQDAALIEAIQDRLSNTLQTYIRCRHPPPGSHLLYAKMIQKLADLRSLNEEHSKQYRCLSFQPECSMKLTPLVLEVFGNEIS
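Inhibition of the VDR/SRC2-3 peptide interaction is quantified by fluorescence polarization. Compounds (23 nl, pintool) incubate with the reagents for 2 hours at ambient room temperature.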
Numbers without * were called inactive; ? = inconclusive; & = joins results of further samples; [ ] = remark or other dose. % is set by controls: 0 for no effect and ±100 for the full control effect; potency is the fitted concentration of half-maximal effect.

mol,VDR inhibitor
COc1ccc(C2=NN(C(=O)CCC(=O)O)C(c3ccc(F)cc3)C2)cc1 (stereo unspecified),5.8%
COc1ccc(-c2csc3ncnc(Oc4ccc5c(C)cc(=O)oc5c4)c23)cc1,-4.6%
COc1ccc([C@H]2/C=C\CN(S(C)(=O)=O)[C@@H](C)C(=O)N2Cc2ccc(F)cc2)cc1,-7.5%
CCN(CC)S(=O)(=O)c1cc(C(=O)NCCN2CCOCC2)ccc1Cl,-7.1%
Fc1ccc(-c2nn(-c3ccc(Cl)cc3)c3c2cnc2ccc(F)cc23)cc1,15.3%
Cc1ccccc1OCC(=O)Nc1c2c(nn1C(C)(C)C)CS(=O)(=O)C2,-21.0%
CCOc1ccc(CC(=O)NCCc2sc(-c3cccc(F)c3)nc2C)cc1,2.3%
CCc1ccc(-n2nc(C)c3c(C)cc(=O)n(CC(=O)Nc4cc(C)ccc4C)c32)cc1,0.8%
COc1cc(C=O)ccc1OS(=O)(=O)c1ccccc1[N+](=O)[O-],0.6%
c1ccc(CCNc2nc(-c3ccncc3)cs2)cc1,-10.0%
CC1CCC(N2CC(=O)N(C3CCCCC3)C(c3ccc(F)cc3)C2=O)CC1 (stereo unspecified),-3.7%
CC(C)Sc1cc(N2CCCC2)nc(-c2ccccc2)n1,16.7%
CC(C)(C)c1ccc(C(=O)NNc2cc(N3CCCCC3)nc(N3CCCCC3)n2)cc1,-0.1%
COc1ccc(CN2C(=O)C(CC(C)C)Nc3ncnc(N4CCN(c5ccccc5)CC4)c32)cc1 (stereo unspecified),-2.2%
O=C(Nc1c2c(nn1-c1ccc(Cl)cc1)CS(=O)(=O)C2)c1cccc(Cl)c1,-0.4%
CCN(CC(=O)NCc1ccc(F)cc1)C(=O)/C=C/c1ccco1,2.1%
O=C(CS(=O)(=O)Cc1ccccc1)Nc1ccccn1,5.6%
COc1ccc(C(=O)CSc2nc(-c3ccccn3)nc(C)c2Cl)cc1,-13.1%
COc1ccc(NC(=O)c2cc(OCCCN(C)C)nn2Cc2ccccc2)cc1,8.8%
Cc1ccc(NS(=O)(=O)c2ccc(NC(=O)CN(c3cc([N+](=O)[O-])ccc3C)S(C)(=O)=O)cc2)c(C)c1,-16.3%
CCCCC[C@@H]1C=C(C(=O)O)[C@H](c2ccc3c(c2)OCO3)N1S(=O)(=O)c1ccc(C)cc1,-8.1%
FC(F)(F)c1ccccc1-c1nc(NCc2cccs2)c2ccccc2n1,-16.3%
CCN(C[C@H]1N[C@@](CC)(C(=O)OC)[C@H]2C(=O)N(Cc3ccccc3)C(=O)[C@@H]12)C(=O)Nc1ccc(Cl)cc1,-4.7%
COc1ccc(-c2nc(S(=O)(=O)c3ccc(Cl)cc3)c(NCc3ccccc3)o2)cc1,-6.8%
CCc1cccc2c(C(=S)N3CCOCC3)c[nH]c12,13.7%
CCN1CCN(Cc2ccc(NC(=O)c3cc(NC(=O)c4cc(-c5ccc(OC)cc5)n[nH]4)cc(OC)c3)cc2C(F)(F)F)CC1,31.6%[activator]
ON=C(CCc1ccccc1)c1ccccc1,-18.1%
CCN(CC)S(=O)(=O)c1ccc(N2CCOCC2)c(NC(=O)C2=COCCO2)c1,-11.9%
Cc1ccc(NC(=O)Cn2c(=O)n(CCCC(=O)NCc3ccco3)c(=O)c3ccccc32)cc1,21.3%
Cn1c(SCC(=O)N2CCCc3ccccc32)nc2cccnc21,?

Additional structures
mol,VDR inhibitor
CCCCNC(=O)c1ccc(Cn2c(=S)[nH]c3c([nH]c4ccc(OC)cc43)c2=O)cc1,-8.2%
O=C(O)c1ccc(CNCc2ccc(Cl)cc2Cl)cc1,-7.6%
Nc1nc(SCc2cccc(Br)c2)n[nH]1,-15.4%
Cc1cc(O)c2c(c1)C(=O)[C@@]13Oc4c5c(c(O)c6c(O)cc(C)cc46)C(=O)C[C@H](O)[C@H]5[C@@H]1[C@@H](O)CC(=O)C3=C2O,-4.8%
COC(=O)CN1C(=O)C(O)(CC(=O)c2ccc(F)cc2)c2ccccc21 (stereo unspecified),0.5%
Cn1c(SC(C(=O)Nc2ccc(F)cc2)c2ccccc2)nc2ccccc21 (stereo unspecified),-10.3%
COC(=O)/C=C/C(=O)Nc1ccc(O)c(Cl)c1,-8.3%
CC(=O)c1cccc(CN2CCCC(C(=O)c3ccc4c(c3)OCO4)C2)c1 (stereo unspecified),-0.5%
CC(C)(C)OC(=O)NCCCC1=CC2=CC(=O)C(C)(OC(=O)c3ccc(Cl)nc3)C(=O)C2=CO1 (stereo unspecified),-1.9%
COc1ccc(NC(=O)Cn2c(=O)oc3cc(S(=O)(=O)N4CCCC4)ccc32)cc1,4.4%
COc1ccc(C)cc1NC(=O)CCC(=O)Nc1nnc(C(F)(F)F)s1,8.3%
CNS(=O)(=O)c1cccc(C(=O)NNC(=O)c2ccc(COc3ccccc3)cc2)c1,5.4%
COc1cccc(-c2ccc3c(N)c(C(=O)c4ccc(Cl)cc4)sc3n2)c1,-11.1%
Fc1ccc(Nc2nc3nonc3nc2Nc2cccc(C(F)(F)F)c2)cc1,-1.5%
NS(=O)(=O)c1cccc(NC(=O)CN2CCc3ccccc32)c1,2.3%
COc1ccc(C2=NN(C)C(=NCc3ccccc3)SC2)cc1,1.7%
CCCC(=O)Nc1nnc(SCC(=O)N2CCCCC2)s1,-7.7%
COc1ccc(C2C(C#N)=C(N)N(c3sc4c(c3C#N)CCCC4)C3=C2C(=O)CC(C)(C)C3)cc1 (stereo unspecified),-8.6%
Cc1nc2ccccc2c2c(N)cccc12,10.0%
CCOc1ncccc1C(=O)Nc1ccc2nc(C)sc2c1,13.7%
O=C(Nc1ccc(Cl)cc1)C(Cl)C(=O)c1ccccc1 (stereo unspecified),17.8µM*
O=C(Oc1c(Br)cc(C(=S)N2CCOCC2)cc1Br)c1ccc(Cl)cc1,?
COc1cc(C(=O)Nc2cccc(NC(=O)c3cccs3)c2)cc(OC)c1OC,0.7%
CCOC(=O)NC1(NC(C)C)Oc2ccccc2O1,-6.9%
CCOC(=O)c1cnc2cc(Cl)c(OC)cc2c1NCC1CCCO1 (stereo unspecified),-0.9%
CCOC(=O)C1CCN(C(=O)COC(=O)c2ccc([N+](=O)[O-])o2)CC1,1.2%
O=C(CNCc1ccco1)Nc1ccc(Oc2ccccc2)cc1,-8.6%
Cc1ccc(C(C)C)c(OCC(=O)N/N=C/C2CCCCC2)c1,21.7%
CCN(CC)CCn1c2c(c(SCC(=O)Nc3ccc4c(c3)OCCO4)nc1=O)CCC2,2.5%
CC(C)CN1CC(C)C(=O)N(c2ccccc2)C1=S (stereo unspecified),0.0%

Some of the entries so far, with the structure last:
VDR inhibitor	smiles
8.3%	COc1ccc(C)cc1NC(=O)CCC(=O)Nc1nnc(C(F)(F)F)s1
10.0%	Cc1nc2ccccc2c2c(N)cccc12

Other entries follow:
mol,VDR inhibitor
CN(C(=O)c1cc2nc(-c3ccco3)cc(C(F)(F)F)n2n1)c1ccc(OC(F)(F)Cl)cc1,-17.8%
C[C@H](CO)N1C[C@H](C)[C@H](CN(C)C(=O)Nc2cccc3ccccc23)Oc2c(NC(=O)c3ccc(-c4nccs4)cc3)cccc2C1=O,2.2%
CC(C)(C)OC(=O)NCCc1nnc(SCc2ccccc2Cl)o1,-8.3%
COC(=O)c1cc(=O)c2cccc(OC)c2[nH]1,9.3%
COc1ccc(S(=O)(=O)N2CCCC2)cc1C(=O)N1CCCCC1,-1.2%
Cc1ccccc1OCC(=O)Nn1c(COc2ccccc2)nc2ccccc2c1=O,7.4%
O=C(COc1ccc(Br)cc1)N/N=C1/SCC(=O)N1Cc1ccco1,?
COC(=O)c1cc(C(=O)Nc2nc3ccccc3[nH]2)cc([N+](=O)[O-])c1,-8.9%
CCOc1ccc(/C=N/NC(=O)CC(=O)Nc2ccc(Cl)c(Cl)c2)cc1,-0.9%
CCc1ccc(CNC(=O)CCn2nc(C)c3c(C)n(-c4ccccc4)nc3c2=O)cc1,-10.8%&-11.8%
CCOC(=O)c1nn(-c2ccc(F)cc2)c(=O)cc1OCC(=O)Nc1ccc(F)c(F)c1,4.8%
O=C(Cn1cc(S(=O)(=O)Cc2ccc(F)cc2)c2ccccc21)NCc1ccccc1,9.8%
CC(=O)Nc1ccc(S(=O)(=O)N(Cc2ccco2)CC2CCCO2)cc1 (stereo unspecified),4.2%
CC(=O)c1cn(C(=O)c2ccc(Cl)cc2)c2ccccc12,-2.7%
CC(C)C[C@@H](CNCC(=O)[C@H](C)NC(=O)c1[nH]cnc1C(=O)N[C@@H](C)CN)NC(=O)c1nc[nH]c1C(=O)N[C@@H](CC(=O)O)C(=O)O,-29.3%
COc1cc(/C=C/C2=NC(=O)C(C)(C)O2)ccc1O,-0.5%
Nc1ccc(-c2cnc3ccccc3n2)cc1,14.7%
Cc1ccc(Cn2ccc(NC(=O)c3cc(CC(C)C)on3)n2)cc1,?
O=C(Nc1cccc(S(=O)(=O)N2CCOCC2)c1)c1ccccn1,-7.0%
Cn1c(SCC(=O)N2CCCC2)nc2ccccc2c1=O,-19.1%
COC(=O)N/N=C/c1cccs1,11.5%
FC(F)(F)c1cc(C(F)(F)F)c2ccc(Oc3ccccc3)nc2n1,0.4%
O=C(COc1ccccc1)Nc1ccc(OC(F)(F)C(F)F)c(NC(=O)COc2ccccc2)c1,-2.0%
O=C(NCC(c1ccco1)N1CCc2ccccc2C1)c1ccccc1Br (stereo unspecified),-6.1%
CCOC(=O)C1=CN(Cc2ccco2)S(=O)(=O)NC1c1cccc(OC)c1 (stereo unspecified),-0.8%
O=C(/C=C/c1ccccc1Cl)N1CCOCC1,-13.6%
c1csc(-c2ccn[nH]2)c1,-13.0%
CCCCn1c(CCNC(=O)CCC)nc2ccccc21,-21.7%
O=C(/C=N/NC(=O)c1ccc(Cl)cc1Cl)c1ccccc1,-6.0%
O=C(Nc1nnc(SCc2ccccc2)s1)C1=COCCO1,-7.9%

Continued.
structure	VDR inhibitor
CC1=CCCC(C)(C)C1/C=C/C(C)=N/NC(=O)c1ccncc1 (stereo unspecified)	14.1%
OCC1(Cc2ccccc2F)CCCN(CC2CCCCC2)C1 (stereo unspecified)	10.9%
Cc1ccc(S(=O)(=O)N/N=C/c2cccc(OC3CSC3)c2)cc1	-0.2%
CN(CC(=O)NCCc1ccc(S(N)(=O)=O)cc1)CC(=O)Nc1cccc(F)c1	-2.7%
CC1CCN(C(=O)c2ccc3c(c2)N(Cc2ccccc2F)C(=O)c2ccccc2S3(=O)=O)CC1	-19.0%
COc1ccc(NS(=O)(=O)c2cc(NC(=O)CNC(=O)c3ccc(C)s3)ccc2Cl)cc1	4.1%
CC(CNC(=O)c1ccc2nc(CCc3ccccc3)oc2c1)c1ccccc1 (stereo unspecified)	-7.1%
O=C(c1ccc(S(=O)(=O)Nc2ccccc2)cc1)N1CCOCC1	-2.1%
NC(=S)N/N=C/c1ccc(-c2ccc(SC(F)F)cc2)o1	-20.7%
CCOC(=O)CC1c2cc(OCC)c(OCC)cc2CCN1C(=O)Nc1cccc(Cl)c1 (stereo unspecified)	11.6%

Reprinted at random: 2 compounds from above.
structure	VDR inhibitor
NC(=S)N/N=C/c1ccc(-c2ccc(SC(F)F)cc2)o1	-20.7%
Cc1ccc(S(=O)(=O)N/N=C/c2cccc(OC3CSC3)c2)cc1	-0.2%

Other compounds follow:
structure	VDR inhibitor
Cc1cc(NS(=O)(=O)c2ccc(NC(=O)CSc3nnc(-c4ccco4)n3N)cc2)nc(C)n1	-5.1%
COC(=O)c1sc(NC(=O)c2cc(-c3ccccc3)nc3ccccc23)c(C#N)c1C	?
Cc1cccc(-n2nc3c(c2NC(=O)CCCl)CSC3)c1	-8.3%
Cc1cccc2cc(CN(CCCN(C)C)C(=S)NCCc3ccccc3)c(=O)[nH]c12	-13.2%
Cc1cc(=O)[nH]c(SCC(=O)Nc2nc3ccccc3s2)n1	?
O=C1CSC(c2ccccn2)N1c1ccc(C(F)(F)F)cc1 (stereo unspecified)	-0.2%
CCOC(=O)C1(Cc2cccc(Cl)c2)CCCN(C(=O)c2cc(C)n(C)n2)C1 (stereo unspecified)	-2.9%
Cn1nc(C(=O)OCC(=O)Nc2ccccc2OC(F)F)c2ccccc2c1=O	-17.9%
CCC(=O)OC1CCC2C3CCc4cc(O)ccc4C3CC[C@]12C (stereo partly specified)	-18.2%
CC1=NN2C(=N)/C(=C\c3cc(C)n(Cc4ccccc4)c3C)C(=O)N=C2S1	2.6%

The closing 2 compounds of the part before lead into the next.
structure	VDR inhibitor
CCC(=O)OC1CCC2C3CCc4cc(O)ccc4C3CC[C@]12C (stereo partly specified)	-18.2%
CC1=NN2C(=N)/C(=C\c3cc(C)n(Cc4ccccc4)c3C)C(=O)N=C2S1	2.6%
N#Cc1ccc(S(=O)(=O)N2CCC(C(=O)N3CCN(Cc4ccc5c(c4)OCO5)CC3)CC2)cc1	8.0%
CCOC(=O)c1ccc(NC(=O)c2c(C)nn(-c3ccc(F)cc3)c2-n2cccc2)cc1	7.8%
O=C(O)CCC(=O)N(Cc1ccco1)C1CC(=O)N(c2ccccc2)C1=O (stereo unspecified)	9.1%
CC(=O)C1=C(C)NC(C)=C(C(C)=O)C1c1ccc(-c2ccccc2Cl)o1	-3.5%
COc1cc(NC(=O)c2nn(-c3ccc(C)cc3)c(=O)c3c2c2ccccc2n3C)cc(OC)c1OC	-4.1%
Cc1ccc(S(=O)(=O)N2CCCCC2)cc1C(=O)NCCCN1CCOCC1	-7.1%

3 of the entries above in order of the VDR inhibitor value, rising:
structure	VDR inhibitor
O=C1CSC(c2ccccn2)N1c1ccc(C(F)(F)F)cc1 (stereo unspecified)	-0.2%
CCOc1ccc(CC(=O)NCCc2sc(-c3cccc(F)c3)nc2C)cc1	2.3%
COC(=O)N/N=C/c1cccs1	11.5%

A portion of the library; the hit share may differ from the screen's.
